Source: PubChem BioAssay
D2 potentiator = human D2 receptor positive allosteric modulation | P14416 | DiscoveRx D2 beta-arrestin cells, luminescence, 90 min; 100% = 57 uM dopamine signal | potentiation, % (no concentration beside the values) | actives 0.23% (n = 360,000); active = potentiation of 50% or more; inconclusive = 30% to 50%; inactive = 30% or less;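 further: compound concentration not given in the record; tested on top of an EC20 dose of dopamine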
Target sequence (P14416 whole entry, looked up): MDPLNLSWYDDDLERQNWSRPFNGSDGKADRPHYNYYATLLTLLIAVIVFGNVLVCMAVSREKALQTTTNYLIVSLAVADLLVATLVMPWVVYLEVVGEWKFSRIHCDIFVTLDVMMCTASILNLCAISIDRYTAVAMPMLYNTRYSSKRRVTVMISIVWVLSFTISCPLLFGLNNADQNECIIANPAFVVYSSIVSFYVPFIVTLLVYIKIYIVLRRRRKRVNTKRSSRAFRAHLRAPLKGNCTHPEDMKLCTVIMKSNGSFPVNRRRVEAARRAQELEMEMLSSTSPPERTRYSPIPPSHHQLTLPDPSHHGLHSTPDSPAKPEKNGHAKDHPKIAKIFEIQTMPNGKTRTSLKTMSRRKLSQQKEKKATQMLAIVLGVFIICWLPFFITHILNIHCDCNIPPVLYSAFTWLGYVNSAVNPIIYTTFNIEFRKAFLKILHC
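PathHunter D2 cells, attached overnight at 37 deg C, received compound in DMSO plus dopamine at EC20 (50 nM final) for 90 min at 37 deg C. Beta-arrestin recruitment was read as luminescence after 1 h with detection reagent at ambient temperature.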
TRPV1 potentiator = human TRPV1 potentiation | TRPV1-expressing cells, Fluo-8 calcium influx, capsaicin EC20 potentiation; host cell line not named in the record; control for the full effect not named in the record | potentiation, % at 8.33 µM | actives 0.02% (n = 320,000); active means potentiation above 80%; inconclusive means 30% to 80%; inactive means below 30%; further: 0% is about no effect
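TRPV1-expressing cells were cultured overnight at 35.5C and loaded with Fluo-8 calcium dye for 40 to 90 min at room temperature. After a 10 s baseline, compound was added and calcium influx was read kinetically for 3 min (ex 480/em 520 nm).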
TRPML1 blocker = inhibitors of human TRPML1 channel. actives 0.02% (n = 390,000). TRPML1-inducible cells, Ca2+ dye fluorescence, FDSS; active compounds read low; inhibition of EC80 agonist-evoked calcium signal. Q9GZU1. activity change, negative = inhibition, % (test concentration not listed). AID 624415; in the data active means activity change below about -50%; inconclusive means about -30% to -50%; inactive means above about -30%;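 further: stimulus is agonist 54-4 at its EC80 concentration; on the % scale 0 is the no-effect control and ±100 the full control effect; compound concentration not given in the record; the text of the record puts the active cut at -80%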
Target sequence (Q9GZU1 whole entry, looked up): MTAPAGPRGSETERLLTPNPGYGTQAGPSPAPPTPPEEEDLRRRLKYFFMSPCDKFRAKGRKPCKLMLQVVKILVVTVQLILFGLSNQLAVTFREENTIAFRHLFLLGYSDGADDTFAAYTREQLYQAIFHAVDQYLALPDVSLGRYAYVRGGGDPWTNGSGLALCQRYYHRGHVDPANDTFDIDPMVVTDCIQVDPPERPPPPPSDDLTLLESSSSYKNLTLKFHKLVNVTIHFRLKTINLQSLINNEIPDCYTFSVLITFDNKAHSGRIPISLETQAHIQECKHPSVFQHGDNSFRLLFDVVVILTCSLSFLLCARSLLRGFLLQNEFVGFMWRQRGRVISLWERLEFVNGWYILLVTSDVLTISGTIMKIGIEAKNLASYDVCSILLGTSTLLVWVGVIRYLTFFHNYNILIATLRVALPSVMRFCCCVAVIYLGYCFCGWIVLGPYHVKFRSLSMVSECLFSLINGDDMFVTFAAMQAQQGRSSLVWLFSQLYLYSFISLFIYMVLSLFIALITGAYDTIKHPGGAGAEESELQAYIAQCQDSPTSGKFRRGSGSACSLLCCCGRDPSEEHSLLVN
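TRPML1-DL cells, Tet-induced overnight (~16 h, 37 °C) at 1,500 cells/well, were loaded with Ca8 no-wash dye plus quencher for 45-90 min at room temperature. Compounds were pinned during FDSS kinetic reading; agonist 54-4 at EC80 (4 uM final) then added.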
CtBP-E1A blk = blocks the CtBP interaction with E1A; AlphaScreen GST-E1A/His-CtBP binding, 1536-well; active compounds read low; control for the full effect not named in the record; activity change, % (no concentration beside the values); actives 0.49% (n = 340,000); AID 651724; in the data active means activity change below about -65%; inconclusive means about -30% to -65%; inactive means above about -30%; further: on the % scale 0 is the no-effect control and ±100 the full control effect
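GST-E1A and His-tagged CtBP (125 nM each as 5X stock) were preincubated with pin-transferred compound for 2 h at 37 °C in the dark, then glutathione donor and nickel acceptor beads were added for 1 h before AlphaScreen reading.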
Six1-Eya2 inh = Six1/Eya2 interaction inhibition; Q15475+O00167; AlphaScreen GST-Six1/His-Eya2 binding, biochemical; active compounds read low; control for the full effect not named in the record; activity change, % (no concentration beside the values); actives 0.56% (n = 360,000); in the data active = activity change below about -65%; inconclusive = about -30% to -65%; inactive = above about -30%; further: on the % scale 0 is the no-effect control and ±100 the full control effect
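Six1/Eya2 binding was read as AlphaScreen signal after compounds were pinned into GST-Six1 plus His-tagged Eya2 (5X stock 250/500 nM) in pH 8.0 Tris/NaCl/TCEP buffer, beads added, then incubated 1 h, 37 C, dark.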
TRPML1 ag = human mucolipin-1 channel agonism; Q9GZU1; TRPML1-expressing cells, Ca2+ dye fluorescence, FDSS; host cell line not named in the record; reference of the full effect not given here; activation, % (no concentration beside the values); actives 0.12% (n = 410,000); AID 624414; in the data active = activation above about 50%; inconclusive = about 30% to 50%; inactive = below about 30%; further: 0% is about no effect; the text of the record puts the active cut at 80%
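TRPML1-DL cells, Tet-induced overnight (~16 h, 37 degrees C), loaded 45-90 min at room temperature with Ca8 no-wash calcium dye plus quencher. FDSS fluorescence: 10 s baseline, compound pin-transfer, 110 s agonist read, then EC80 54-4 (4uM final) and 110 s antagonist read.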
* hit, by the source's call; u = inconclusive; x = no result given; & = joins results of further samples.

SMILES	D2 potentiator	TRPV1 potentiator	TRPML1 blocker	CtBP-E1A blk	Six1-Eya2 inh	TRPML1 ag
COc1ccc(/C=N/NC(=O)c2cccc(OC(F)(F)C(F)F)c2)cc1O	-10	-3	-8	-6	-11	1.1
O=S1(=O)[C@H]2C[C@@H]3C=C[C@@]2(CN1Cc1cccc(C(F)(F)F)c1)O3	-8	4	-5	5	6	-0.1&-0.6
Cc1nn(CC(=O)N(C)C2CCS(=O)(=O)C2)c(C)c1[N+](=O)[O-] (centres undefined)	5	30	-19	-2	2	0.6
COc1cc(/C=N/NC(=O)c2cccc(N3CCCC3=O)c2)ccc1O	2	-6	7	-11	-10	-0.5
CCc1ccc(OCc2cccc(C(=O)N/N=C\c3cnn(C)c3C)c2)cc1	3	-1	-12	-11	-10	-0.1
Nc1cccc2c1C(=O)N(c1ccccc1)C2=O	-12	x	-12	14	11	1.1
CS(=O)(=O)N1CCC(CO)(Cc2ccccc2C(F)(F)F)CC1	-3	-9	-12	1	2	-0.3
NNc1ncnc2scc(-c3ccc(Cl)cc3)c12	6	-31	-5	11	-17	-0.2
CC1(C(=O)NC23CC4CC(CC(C4)C2)C3)CC1(Cl)Cl (centres undefined)	-1	-12	13	2	0	0.1
COc1ccc(CN2C[C@@H](CO)O[C@@H](n3cnc4c(N5CCN(CCO)CC5)ncnc43)C2)cc1	-4	x	x	2	-1	-0.4
O=C(Cn1nc(-c2ccccc2)ccc1=O)NCC1COCCO1 (centres undefined)	-13	2	-13	-1	3	0.0
COc1ccc(NC2CCCN(C(=O)COc3ccc(C(C)=O)cc3)C2)cc1 (centres undefined)	-10	x	-2	-5	1	-0.3
C/C(=N\NC(N)=S)C1=CCC2C3CC[C@H]4CC(O)CC[C@]4(C)C3CC[C@]12C (some centres undefined)	3	7	50	x	3	4.6
CC(c1nnc(SCC(=O)N(C)C2CCS(=O)(=O)C2)n1-c1ccccc1)N(C)C (centres undefined)	0	4	-1	1	5	0.4
Cc1nc(N2CCN(C)CC2)c2sc(=S)n(-c3ccccc3)c2n1	-5	-8	37	-1	0	0.8
CC(CCc1ccccc1)NCC#N (centres undefined)	-8	-13	x	-7	2	x
CC(C)(C)NC(=O)NC(=O)COC(=O)c1cc[n+]([O-])cc1	-5	-3	0	-1	5	0.5
Cc1nn(-c2ccccc2)c(-c2ccccc2[N+](=O)[O-])c1C(=O)O	-9	-5	-12	0	2	0.0
COc1ccc(Cl)cc1C(=O)NNC(=S)NC(=O)c1cc(-c2ccc(Cl)cc2)nc2ccccc12	5	-2	-6	-2	3	5.5
Cc1cc(Oc2cc(N)cc([N+](=O)[O-])c2)ccc1Cl	-3	6	14	-4	-8	1.9
O=C(CSc1nnc(NCc2ccccc2)s1)N1CCOCC1	-13	-17	22	0	16	0.1
COc1ccc(C(=O)NNC(=O)C23CC4CC(CC(C4)C2)C3)cc1OC	-3	3	-5	0	6	-0.1
Cc1ccc2oc(C(=O)Nc3cc(C)on3)c(C)c2c1	-7	u	16	x	-3	0.5
CNc1cc(-n2nc(C)cc2-c2ccccc2)ncn1	-15	28	-10	0	3	-0.1
COc1ccccc1NC(=S)N(Cc1ccc(Cl)cc1)CC1CCC(C(=O)O)CC1 (centres undefined)	-9	9	0	x	-2	0.4

(next part)
SMILES	D2 potentiator	TRPV1 potentiator	TRPML1 blocker	CtBP-E1A blk	Six1-Eya2 inh	TRPML1 ag
CCOC(=O)[C@@H]1[C@H]2COc3ccc(Br)cc3[C@@H]2N2C(=O)N(c3ccc(Br)cc3)C(=O)[C@]12C	-1	-4	8	-7	-4	0.3
NC(=S)C1COc2ccccc2O1 (centres undefined)	-6	15	-11	-3	7	0.1
NC(=O)C1CCN(C(=O)COc2ccc3c4c(c(=O)oc3c2)CCCC4)CC1	-26	-22	x	-4	-4	x
CCc1nc2c(OCc3ccc(F)cc3)cccn2c1N(C)C(=O)c1ccncc1	-10	x	-2	4	-3	0.3
Cc1ccc(C)c(NC(=S)N(CCN(C)C)C(C)c2ccccn2)c1 (centres undefined)	-6	-11	24	-65*	-70*	-0.6
Cc1c(-n2c(SCC(=O)N(C)C3CCS(=O)(=O)C3)nc3ccccc3c2=O)c(=O)n(-c2ccccc2)n1C (centres undefined)	4	-15	13	-1	10	-0.3
CN(C)c1ccc(CC(=O)N2CCCCC2c2cc(C(=O)Nc3cccc(C#N)c3)no2)cc1 (centres undefined)	4	x	x	u	-30	-0.3
Fc1ccccc1OCCSc1nnnn1-c1ccccc1	-14	5	3	36	23	2.4
C=CCNC(=S)NNC(=O)CSc1nc2ccccc2s1	-9	4	-5	-4	-8	-0.4
COc1ccc(CNC(=O)C2CCNCC2)cc1	1	-14	43	-4	0	0.6
Cc1ccc(C)c(S(=O)(=O)N2CCN(C(=O)/C=C/c3ccco3)CC2)c1	-2	4	44	-5	-13	0.2
O=C(O)c1ccc2c(=O)n3c(nc2c1)/C(=C/c1ccccc1C(F)(F)F)CCCC3	2	8	-5	3	1	-0.6
CCOc1ccccc1NC(=S)NC(=O)C1CCCCC1	-11	4	-9	0	-4	0.3
CCOC(=O)c1c(OCCO)noc1N	0	0	6	7	9	-0.6
CCc1c(OC(C)=O)c2ccccc2n(C)c1=O	-5	-8	14	16	11	-0.5
CCCCN1C[C@H](c2ccc(Br)cc2)[C@@H](CC(=O)Nc2ccc(Br)cc2)C1=O	-4	x	10	-4	5	-0.8
O=C(CCNC(=O)Cn1ccc2ccccc2c1=O)NCC1CCCC1c1ccccc1 (centres undefined)	-6	2	-17	2	3	-0.2
Cc1ccccc1NC(=O)CC1SC(=Nc2ccc(O)cc2)NC1=O (centres undefined)	-8	x	18	4	-15	-0.2
C=CCN1C=C2C(=O)C(C)(OC(=O)CCC(=O)OC)C(=O)C(Br)=C2C=C1c1ccc(OC)cc1 (centres undefined)	12	-15	-11	-2	-10	-0.4
CCN1CCN(C(=S)c2ccc(O)cc2)CC1	-19	-9	7	x	2	0.1
Cc1oc(-c2ccccc2Cl)nc1CSc1nc2c(c(=O)[nH]1)CCC2	9	0	-7	35	21	5.1
Cc1c(CCOC(=O)C23CC4CC(CC(C)(C4)C2)C3)sc[n+]1Cc1ccccc1	-39	-15	49	-13	-2	3.9
CCN(CC)C(=O)CSc1nnc(-c2ccccc2)c(-c2ccccc2)n1	-10	-4	-12	-2	0	0.9
N#Cc1c(SCC(N)=O)nc(-c2ccccc2)c2c1CCCC2	-7	4	7	-7	-7	2.3
COc1cc(OC)c(N2CC(C(=O)NCCC3=CCCCC3)CC2=O)cc1Cl (centres undefined)	-24	-17	11	x	-19	0.3

Some values from the list.
For Six1-Eya2 inh, `Cc1ccccc1NC(=O)CC1SC(=Nc2ccc(O)cc2)NC1=O` (centres undefined) reads -15
For TRPML1 ag, `O=C(O)c1ccc2c(=O)n3c(nc2c1)/C(=C/c1ccccc1C(F)(F)F)CCCC3` reads -0.6

Given as comma-separated lines: part of the list above
molecule,D2 potentiator,TRPV1 potentiator,TRPML1 blocker,CtBP-E1A blk,Six1-Eya2 inh,TRPML1 ag
CC(C)(C)NC(=O)NC(=O)COC(=O)c1cc[n+]([O-])cc1,-5,-3,0,-1,5,0.5
COc1ccc(Cl)cc1C(=O)NNC(=S)NC(=O)c1cc(-c2ccc(Cl)cc2)nc2ccccc12,5,-2,-6,-2,3,5.5
CNc1cc(-n2nc(C)cc2-c2ccccc2)ncn1,-15,28,-10,0,3,-0.1
CCN(CC)C(=O)CSc1nnc(-c2ccccc2)c(-c2ccccc2)n1,-10,-4,-12,-2,0,0.9

Back to the main list, repeating the two entries before the break.
SMILES	D2 potentiator	TRPV1 potentiator	TRPML1 blocker	CtBP-E1A blk	Six1-Eya2 inh	TRPML1 ag
N#Cc1c(SCC(N)=O)nc(-c2ccccc2)c2c1CCCC2	-7	4	7	-7	-7	2.3
COc1cc(OC)c(N2CC(C(=O)NCCC3=CCCCC3)CC2=O)cc1Cl (centres undefined)	-24	-17	11	x	-19	0.3
CC(=O)C(Sc1nnnn1-c1ccc(O)cc1)c1ccccc1 (centres undefined)	4	-1	7	2	1	2.5
Cc1cccc(-n2c(Cc3cc(=O)[nH]c(=O)[nH]3)nnc2SCC(=O)NCc2ccco2)c1	-9	x	14	0	20	1.0
COc1ccccc1C(=O)Nc1ccc2c(c1)nc(CCNC(=O)c1ccccc1)n2C	6	11	-17	-2	-2	0.2
CCOC(=O)Cc1csc(NC(=O)CCc2ccccc2)n1	-2	5	4	-5	3	0.6
CC(C)CNC(=S)N1CCN(C)CC1	-13	-26	-13	4	-1	-0.5
CCN(CC)CCN(Cc1cc2cc3c(cc2[nH]c1=O)OCCO3)C(=S)NCC(C)C	-10	-15	-12	-3	-1	-0.1
CCCNC(=O)C1CCC(CNS(=O)(=O)c2cccc3nsnc23)CC1 (centres undefined)	-4	2	-15	0	-1	0.3
COc1ccc(OC)c(NC(=O)C(CC(=O)O)NCc2ccco2)c1 (centres undefined)	-6	23	-5	-1	1	0.4
CCN(CC)S(=O)(=O)c1cc(C(=O)Nc2cc(C)on2)c(Cl)cc1Cl	-1	6	2	-5	-3	0.1
COc1ccc(/C=C(\NC(=O)c2ccccc2)C(=O)NCCC(=O)O)cc1	-5	-3	8	8	-10	1.3
O=C(O)/C=C/C(=O)Nc1ccc(OCc2ccccc2)cc1	-4	-10	5	5	-5	2.1
Cc1ccc(-n2c(=O)cc(N3CCC(C)CC3)[nH]c2=O)cc1	-4	-22	-8	4	5	1.4
N#Cc1ccc(-c2ccco2)nc1SCC(=O)c1ccc(Cl)cc1	0	11	22	1	5	1.8
C/C(CC(=O)Nc1ccc2c(c1)OCO2)=N\NC(=O)c1ccccc1N	-6	1	-10	3	1	0.4
CCC(c1nnnn1-c1ccc2c(c1)OCCO2)N1CCN(c2ccc(OC)cc2)CC1 (centres undefined)	x	x	x	-2	-28	-0.6
CCOC(=O)C1(CCc2ccccc2)CCN(C(=O)CCn2cnnn2)CC1	-4	-6	-9	0	4	1.2
Cc1ccc2c(C)[nH]c(=O)cc2c1	-15	-2	-11	-2	-9	-0.6
CCCCNC(=O)C[C@@H]1C[C@@]2(C(=O)OCC)CCC=C2N(Cc2ccco2)C1=O	x	x	x	3	8	-0.9
CCc1nc2c(OCC(=O)N3CCOCC3)cccn2c1N(C=O)Cc1ccccc1	-6	x	x	1	-7	-0.5
C/C(=N/OC(=O)c1c(F)cccc1F)c1nccs1	-13	-13	1	1	0	-0.2
COc1ccc(NC(=O)CCCNC(=O)c2ccc(Cl)cc2)c(OC)c1	1	-26	-6	-11	7	0.4
CCN(CC)C(=O)C(C)N1c2cccc3cccc(c23)S1(=O)=O (centres undefined)	-6	x	4	4	1	-0.6
COc1ccccc1NC(=O)N(CCN1CCCC1)Cc1cc2cc(C)ccc2[nH]c1=O	-9	x	3	-4	-2	0.5
Brc1cccc(Cn2c(-c3cncs3)nc3ccccc32)c1	-9	3	4	2	1	0.3
C=CCn1c(SCc2ccc(OC)cc2)nnc1-c1cccnc1	4	0	15	-14	-10	-0.5
CSc1nc(C)cc(OCCO)n1	-13	1	5	2	-1	1.9
Cn1cc(CCC(=O)NCc2ccc(Cl)cc2)c2ccccc21	-22	-22	13&1	1	-3	1.0&2.7

Six1-Eya2 inh, entries above that show a hit.
Molecule	D2 potentiator	TRPML1 blocker	CtBP-E1A blk	Six1-Eya2 inh
Cc1ccc(C)c(NC(=S)N(CCN(C)C)C(C)c2ccccn2)c1 (centres undefined)	-6	24	-65*	-70*
